# VDR inhibitor: Inhibitors of the vitamin D receptor (VDR): qHTS; Vitamin D3 receptor (Homo sapiens), P11473; VDR-SRC2-3 peptide fluorescence polarization, 2 h; Potency, µM, for inactives: max response, negative = inhibition, hits mostly inhibitors; 400,000 tested, 0.93% active; active = well fitted inhibition curve with a large enough effect; inconclusive = small, poorly fitted or top-dose-only effect, or another doubt; inactive = no such curve, though single readings can be large or run the other way; note: series mostly up to about 120 µM
# Target sequence (P11473 whole entry, looked up): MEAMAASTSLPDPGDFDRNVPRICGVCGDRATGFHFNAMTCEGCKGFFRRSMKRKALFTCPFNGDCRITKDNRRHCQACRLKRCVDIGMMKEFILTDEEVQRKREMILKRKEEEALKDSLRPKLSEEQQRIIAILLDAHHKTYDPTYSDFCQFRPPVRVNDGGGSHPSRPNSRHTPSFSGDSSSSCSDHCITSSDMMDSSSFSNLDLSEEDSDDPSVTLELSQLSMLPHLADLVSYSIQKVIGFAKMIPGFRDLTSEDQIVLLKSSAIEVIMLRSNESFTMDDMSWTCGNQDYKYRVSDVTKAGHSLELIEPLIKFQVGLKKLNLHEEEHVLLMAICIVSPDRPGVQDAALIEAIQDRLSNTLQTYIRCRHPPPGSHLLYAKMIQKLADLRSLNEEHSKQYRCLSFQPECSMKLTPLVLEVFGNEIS
#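 Compounds are added to VDR with labelled SRC2-3 coactivator peptide and held 2 h at room temperature. Inhibition of the VDR–peptide interaction is then read as a change in fluorescence polarization.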
# Starred values were filed as active, the others as inactive; ? = inconclusive; & = joins results of further samples; [ ] = remark or other dose. % is set by controls: 0 for no effect and ±100 for the full control effect; potency is the fitted concentration of half-maximal effect. Some of the compounds tested; the hit share may differ from the screen's.
# The first 3 entries as a preview:
VDR inhibitor | smiles
-14.6% | CCOC(=O)N1C(=O)NC(=O)C1c1ccc(Cl)cc1 (centres undefined)
5.1% | Cc1cc(=O)oc2cc(O)c(N=Nc3ccccc3)cc12
-3.8% | CCOC(=O)c1c(C)[nH]c(C)c1S(=O)(=O)N1CCN(c2ccc([N+](=O)[O-])cc2)CC1

# This part in full, previewed entries included:
VDR inhibitor | smiles
-14.6% | CCOC(=O)N1C(=O)NC(=O)C1c1ccc(Cl)cc1 (centres undefined)
5.1% | Cc1cc(=O)oc2cc(O)c(N=Nc3ccccc3)cc12
-3.8% | CCOC(=O)c1c(C)[nH]c(C)c1S(=O)(=O)N1CCN(c2ccc([N+](=O)[O-])cc2)CC1
6.3% | COc1ccccc1CN1CCC(CNC(=O)c2cnn(-c3ccc(Cl)cc3)c2C2CCN(C(=O)OC(C)(C)C)CC2)CC1
-4.5% | O=C(Cn1nnc(-c2ccccc2F)n1)NCc1ccco1
-20.2% | Cc1ccc(S(=O)(=O)N2CCN(C(=O)[C@H](Cc3ccccc3)NC(=O)c3ccco3)CC2)cc1C
5.8% | CCC(=O)C1=C(c2ccc(OC)c(OC)c2)N(C(=O)CC)n2c(nnc2-c2ccc(C)cc2)S1
30.6%[activator] | Cc1csc(SCC(=O)Nc2cc(C(C)(C)C)nn2-c2ccccc2)n1
-14.5% | Cc1cccn2c(=O)nc(SCC(=O)N3CCC(Cc4ccccc4)CC3)nc12
-18.2% | CS(=O)(=O)CCSc1ncccc1C(=O)NCc1cccs1
-20.8% | Cc1ccccc1N1Cc2ccccc2C1
? | Cc1ccc2c(c1C)-c1c(ccc(C)c1C)C(=O)C2=O
-5.8% | O=C1CSC(c2ccccc2)N1c1ccc([N+](=O)[O-])cc1 (centres undefined)
19.5% | CCOC(=O)c1csc(NC(=O)CSc2nnnn2-c2ccc3c(c2)OCCO3)n1
5.2% | COc1cc(OC)c(NC(=O)Cn2cnc3sc(C)c(S(=O)(=O)N4CCN(C)CC4)c3c2=O)cc1Cl
-12.3% | O=C(Nc1ccccc1N1CCOCC1)C1CCN(S(=O)(=O)c2cccc(C(F)(F)F)c2)CC1
-6.4% | O=C(c1ccc(Br)o1)N1CC=C(c2ccccc2)CC1
11.6% | COc1ccc(CN2CCC(n3nccc3NC(=O)CCOc3ccccc3)CC2)cc1C
-14.7% | COc1cccc(C(=O)Nc2sc3c(c2C(=O)O)CCCC3)c1
-7.2% | CC(=O)c1ccc(N(CC(=O)NC2CCCCC2)C(=O)CNC(=O)c2ccco2)cc1

# Next part:
VDR inhibitor | smiles
5.1% | CCCn1nc(C(=O)OCC(=O)c2ccccc2)c2ccccc2c1=O
-12.0% | CCc1ccc2[nH]c(=O)c(CN(Cc3ccccc3)Cc3nnnn3C(C)(C)C)cc2c1
-5.3% | COCCNC(=S)N1CCN(c2cccc(C)c2C)CC1
-1.5% | COc1ccc2c(c1)O[C@H](c1ccc3c(c1)OCO3)[C@@H](OC(=O)Nc1ccc(OC(F)F)cc1)C2=O
12.5% | COc1cccc(CNc2ccc(F)c(Cl)c2)c1OC
-27.6% | O=C(NC(Cc1ccccc1)C(=O)O)/C(=C/c1cccc(Br)c1)NC(=O)c1ccco1 (centres undefined)
19.6% | O=C(NCc1ccccc1)C(c1ccccc1)N(C(=O)c1csnn1)C1CC1 (centres undefined)
1.1% | COc1cc(C(=O)NCCc2cn3ccc(C)cc3n2)cc(OC)c1OC
2.1% | O=C(c1ccccc1-c1ccccc1)N1CCN(c2ccccn2)CC1
-2.0% | CC(OC(=O)CN1C(=O)NC2(CCCC2)C1=O)C(=O)c1ccc(C(C)(C)C)cc1 (centres undefined)
-5.0% | O=C(Cc1ccc(Cl)c(Cl)c1)Nc1cccnc1
5.1% | CN1CCN(/N=C/c2ccc(N(C)c3ccccc3)cc2)CC1
-6.2% | O=C(CN1C2CCCC1CC(NC(=O)C1CCCCC1)C2)Nc1ccccc1C(F)(F)F (centres undefined)
-0.9% | CN1CCN(C(CNS(=O)(=O)c2cccs2)c2cccnc2)CC1 (centres undefined)
0.8% | O=[N+]([O-])c1cccc(-c2noc(COc3ccccc3)n2)c1
-2.8% | CC(=O)c1cccc(NC(=O)c2cc(C)nc3c2c(C)nn3-c2cccc(Cl)c2C)c1
-1.5% | CC(=O)Oc1cccc(C(=O)Nc2ccc(NC(=O)c3cccs3)cc2)c1
-8.3%&2.3%&3.3% | Clc1ccc(-c2nc3sccn3c2/C=N/OCc2ccc(Cl)c(Cl)c2)cc1
11.4% | O=C(c1cc(F)c(F)cc1Cl)N1CCCCC1
-4.7% | O=C(c1ccc(Cl)c(Cl)c1)N1CCC(O)(CN2CCOCC2)CC1

# More structures follow:
VDR inhibitor | smiles
-15.4% | O=C(COC(=O)/C=C/c1cccc(F)c1)Nc1ccccc1
12.4% | CCCCn1c(=N)n(CC(O)COc2cccc(C)c2)c2ccccc21 (centres undefined)
21.3% | CCN(CC)P(=O)(Nc1ccc(Br)cc1)c1c(C)nn(CCC#N)c1NC(=O)c1ccc(Cl)cc1 (centres undefined)
-3.2% | CCCCC#Cc1nc(NC)c2ncn([C@@H]3O[C@H](CO)[C@@H](O)[C@H]3O)c2n1
-14.0% | Cn1c(=O)n(Cc2ccccc2)c(=O)c2c1nc1n2CCS1
-5.8% | CC(C)[C@H](NC(=O)[C@@H]1Cc2c([nH]c3ccccc23)C2c3ccccc3C(=O)N21)C(=O)NCC1CCCO1 (some centres undefined)
-24.6% | Cc1cccc(-c2n[nH]c(=S)n2/N=C/c2ccco2)c1
21.9% | Cc1ccccc1CC1(CO)CCCN(C(=O)c2ccc(F)cc2)C1 (centres undefined)
17.8% | Cc1nc2ccc(C(=O)N(C)CC3CCCN(CCc4ccc(Cl)cc4)C3)cc2[nH]1 (centres undefined)
-7.6% | O=C1OC(N2C(=O)CC[C@H]2C(=O)Nc2cccc(F)c2)c2ccccc21 (some centres undefined)
-3.8% | COc1ccc(C(=O)N2CCN(S(=O)(=O)c3ccc(C)cc3C)CC2)cc1OC
? | COc1ccc(CCNC(=O)C2CCN(C(=O)c3ccc(Br)cc3)CC2)cc1
-16.2% | COc1ccc(-n2ccnc2SCC(=O)NCc2ccccc2)c(OC)c1
-5.3% | COC1=CC(=O)C(OC)=C(OC)C1=O
3.4% | CC(C)(C)C(=O)Nc1ccc(-c2cc3cc(Cl)ccc3o2)cc1
7.5% | CN(C)S(=O)(=O)c1ccc(Cl)c(NC(=O)CSc2nc3ccccc3c(=O)n2CCCN2CCOCC2)c1
11.1% | Cn1c(NCCCN2CCOCC2)nc2c1c(=O)n(Cc1ccc(Cl)cc1)c(=O)n2C
-0.2% | COc1ccc(-c2nc(CCNC(=O)c3cccs3)cs2)cc1OC
1.9% | COC(=O)c1[nH]c(C)c(/C(O)=C2\C(=O)C(=O)N(CCN3CCOCC3)C2c2ccco2)c1C (centres undefined)
-9.1% | CCOc1ccc(CNC(=O)CCc2cn(C)c3ccccc23)cc1OC

# Continued:
VDR inhibitor | smiles
-1.1% | Cn1c(C(=O)N2CCOCC2)cnc1Sc1ncc(C(F)(F)F)cc1Cl
0.6% | Cc1noc(NS(=O)(=O)c2ccc(N/C=C\C(=O)c3ccncc3)cc2)c1C
-19.4% | O=C(NCc1cccc(Cl)c1)NC(=O)c1csc([N+](=O)[O-])c1
1.6% | Cc1ccc(-n2ncc3c(=O)n(CC(=O)N4CCN(c5ccccc5F)CC4)cnc32)cc1C
-1.6% | CC1(C)CC(CC(=O)O)(c2ccc(Cl)cc2)CCO1 (centres undefined)
? | CC(C)=CCC/C(C)=C/CC/C(C)=C/CC/C(C)=C/CC1=C(C)C(=O)c2ccccc2C1=O
2.3% | COc1cccc(CN2CCCC(CNC(=O)c3ccc(F)cc3)C2)c1OC (centres undefined)
-3.5% | COc1ccc(NC(=O)c2ccc(NC(=O)CSc3nccc(=O)[nH]3)cc2)cc1
8.7% | Cc1ccc(NC(=O)C2CCN(c3nn4c(=O)cc(C)nc4s3)CC2)cc1
-4.1% | COc1ccc(/C=N/NC(=S)NCc2ccccc2)cc1OC
10.0% | O=C(O)CCc1nn2c3ccccc3nc2n(Cc2ccccc2)c1=O
-8.5% | COCCCNc1c2c3c(cccc3[nH]c1=O)C(=O)c1ccccc1-2
6.0% | COc1ccc(NC(=O)N2CC3(CCN(S(=O)(=O)c4ccccc4)CC3)C2)cc1
6.8% | Cc1ccc2nc(-c3cc(NC(=O)c4ccc5c(c4)OCCO5)ccc3Cl)oc2c1
23.9% | CS(=O)(=O)N(CC(=O)Nc1ccc2c(c1)OCO2)c1ccc2c(c1)OCO2
7.2% | CCCC(C)C(=O)Nc1ccc2c(c1)OCCO2 (centres undefined)
-7.3% | CCC(CC)NC(=O)COC(=O)c1ccc(NS(=O)(=O)c2ccc3c(c2)OCCO3)cc1
-15.0% | Cc1ccc2nc(SCC(=O)NCc3ccc(F)cc3)[nH]c2c1
11.2% | C/C(Cc1ccccc1)=N\NC(=O)CNC(=O)c1cccc(Cl)c1
-1.4% | CCN1C(=O)c2ccccc2S(=O)(=O)c2ccc(C(=O)NCCOC)cc21

# (continued)
VDR inhibitor | smiles
-1.5% | O=C(NCC1CCN(C(=O)c2cccc([N+](=O)[O-])c2)CC1)c1cccc([N+](=O)[O-])c1
-1.9% | CC(O)CNc1ncnc2cc(-c3ccc(F)cc3)sc12 (centres undefined)
-0.2% | C=COCCNC(=S)N1CCOCCOCCN(C(=S)NCCOC=C)CCOCC1
-5.4% | CCNc1ccc(S(=O)(=O)N(C)C)cc1NCC(=O)Nc1ccc(Br)cc1F
-4.0% | CC(=O)Nc1nonc1-c1nnc(SCC(=O)Nc2ccccc2Cl)n1C
7.6% | O=C1CN(S(=O)(=O)c2ccc(Cl)cc2)c2ccccc2N1
-9.1% | Nc1nonc1-n1nnc(C(=O)N/N=C/c2ccc(OCc3cccc(Cl)c3)cc2)c1CN1CCCCC1
13.9% | CCNc1nc(NCC)n2c(SCC(=O)Nc3ccc(C)cc3Br)nnc2n1
4.9% | COc1ccc(OCC(=O)Nn2c(-c3ccc(C)cc3)nc3ccccc3c2=O)cc1
4.8% | Fc1ccccc1-c1nc(-c2ccc(Cl)cc2)no1
-18.6% | Cc1ccc(S(=O)(=O)N(C)CC(=O)NC2CC(C)(C)NC(C)(C)C2)cc1
-4.9%&-12.4% | O=C(O)c1ccc(-n2nc(C(F)(F)F)c3c2CCCC3)cc1
5.1% | Cn1c(C(=O)N[C@@H](Cc2ccccc2)C(=O)O)cc2cc(F)ccc21
-18.8% | COc1ccc(/C=C/C(=O)N2CCN(S(=O)(=O)c3ccccc3)CC2)cc1OC
-4.4% | CCC(=O)N1CCc2cc(Br)cc(S(=O)(=O)N3CCN(c4ccc(C(C)=O)cc4)CC3)c21
-24.6% | COc1cc(C(N)=O)cc(Br)c1OCc1ccccc1
6.5% | Cc1cccc(C)c1Nc1c(-c2ccsc2)nc2cccc(C)n12
1.4% | O=C1CN(C(=O)c2ccc(F)c(S(=O)(=O)N3CCOCC3)c2)c2ccccc2N1
6.3% | CC(=O)c1cccc(-n2nnnc2SCC(=O)N2CCCC2)c1
-10.4% | CC1(C)CC(=O)c2c(O)cc(OCc3ccc([N+](=O)[O-])cc3)cc2O1

# Shown bar-delimited: entries from further up.
canonical_smiles | VDR inhibitor
Nc1nonc1-n1nnc(C(=O)N/N=C/c2ccc(OCc3cccc(Cl)c3)cc2)c1CN1CCCCC1 | -9.1%
CCC(=O)N1CCc2cc(Br)cc(S(=O)(=O)N3CCN(c4ccc(C(C)=O)cc4)CC3)c21 | -4.4%
CC(O)CNc1ncnc2cc(-c3ccc(F)cc3)sc12 (centres undefined) | -1.9%

# (next part)
VDR inhibitor | smiles
-1.9% | Cc1c(OCc2ccc(C(=O)O)o2)ccc2c3c(c(=O)oc12)CCC3
15.0% | O=C(c1ccccc1NS(=O)(=O)c1cccs1)N1CCOCC1
1.6% | CCN(CC)S(=O)(=O)c1ccc(NC(=O)CC(NC(C)=O)c2ccccc2)cc1 (centres undefined)
-10.5% | O=C(OCc1cccc([N+](=O)[O-])c1)c1ccc2ccccc2n1
-11.8% | Cc1ccc2c(c1)Cc1c(nc(-c3ccc(F)cc3)nc1SCC(=O)N1CCCCC1)O2
-1.1% | CCc1cc(=O)oc2cc(C)cc(OCC(=O)NCCN3CCOCC3)c12
-2.4% | Nc1ccnc2c1ncn2[C@@H]1O[C@H](CO)[C@@H](O)[C@H]1O
? | CC[C@]12c3[nH]c4cc(-c5ccco5)ccc4c3CCN1C(=O)[C@@H](CC(=O)NCCC1=CCCCC1)C[C@@H]2C(=O)N1CCN(C(=O)c2ccco2)CC1
-15.2% | Oc1ccccc1-c1cc(-c2ccccc2Cl)[nH]n1
27.1% | CCn1c(COc2cccc3cccnc23)nnc1SC(F)F
-2.1% | O=C(CCSc1ccc(Cl)cc1)NCc1ccncc1
-6.0% | COc1ccc(C(=O)NCc2csc(C)n2)cc1OC1CCN(C(C)=O)CC1
-14.4% | CC(C)[C@H](NC(=O)[C@@H]1CSC2c3ccccc3C(=O)N21)C(=O)NCc1ccco1 (some centres undefined)
18.9% | NS(=O)(=O)c1ccc(NC(=O)N2c3ccccc3Sc3ccccc32)cc1
-12.7% | Cc1ccc(C(=O)N/C(=C/c2cccnc2)C(=O)N2CCCCCC2)cc1
-18.5% | COc1ccc2c(c1)CC1c3c(cc4c(c3-2)OCO4)CC[N+]1(C)[O-] (centres undefined)
-8.1% | O=C(/C=C/c1cccs1)Nc1nc(-c2ccccc2)cs1
11.8%&-21.3% | O=C(NCCn1cc(SCc2ccc(F)cc2)c2ccccc21)c1c(F)cccc1F

# Shown with tabs: part of the list above
SMILES	VDR inhibitor
O=C(/C=C/c1cccs1)Nc1nc(-c2ccccc2)cs1	-8.1%
Cc1ccc(C(=O)N/C(=C/c2cccnc2)C(=O)N2CCCCCC2)cc1	-12.7%
O=C(NCCn1cc(SCc2ccc(F)cc2)c2ccccc21)c1c(F)cccc1F	11.8%&-21.3%
